RN4220 kill: growth inhibition of S. aureus RN4220, primary screen, OD600; 16 h; inhibition, % (concentration not given with the values); 0.33% of 330,000 active; AID 1259311, 2017;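 active = z-score of -3 or lower and OD600 up to 0.18 on both plates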;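 also: plate controls were untreated cells for no effect and reference antibiotic for full effect; stock transfer was 100 nL into about 80 µL; one replicate is shown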
PrP 5UTR inh: inhibition of PrP 5' UTR reporter expression; inhibition, % (no concentration beside the values); cell-based PrP 5' UTR mRNA reporter, plate reader; 0.35% of 340,000 active;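 active = every replicate at 50% or more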;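 also: 0 = median of the neutral control wells; tested in H4 reporter cells; numbers are from one replicate; inactives centre near -14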
BJeLR viability: MLPCN primary cell-based screen for lethality selective to Ras in HRASV12 cells. inhibition, % (concentration not given with the values). 0.17% of 300,000 active. BJeLR (HRASV12) viability, CellTiter-Glo ATP luminescence, 48 h; reference of the scale not given here;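 active = replicate mean above 50%; inconclusive = above 50% but judged a plate artefact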;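 also: 50 nL library stock added to about 25 µL; numbers are from one replicate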
Mtb hypoxia inh: PubChem AID 1159583. M. tuberculosis hypoxia-regulated fluorescent reporter, fluorescence. 0.1% of 300,000 active. fluorescence inhibition, % (no concentration beside the values);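 active = 35 to 45% if threefold the growth effect, above 45% if 1.5-fold the growth effect; inactive = the rest, general growth blockers included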;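 also: wells of about 50 µL received 100 nL stock; 0% = vehicle wells and 100% = reference inhibitor wells; whole bacteria with a GFP reporter of the hypoxia response; strong numbers were not always called active; many hits fall short of the cut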
Sa ugtP lethal: growth inhibition of ugtP-null S. aureus, primary screen, RN4220 ugtP deletion, OD600; growth inhibition, % (no concentration beside the values); 0.54% of 330,000 active; 16 h; some inactives read as strong as hits;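 active = z-score under -3 and OD600 up to 0.15 on both plates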;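 also: plate controls were untreated wells for no effect and antibiotic for full effect; wells of about 80 µL received 100 nL stock; the first replicate is given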
Bead autofluor: counter-screen for toxin protease inhibitors: compound fluorescence. AID 624483. compound autofluorescence counterscreen, microsphere flow cytometry; hits give high values. fluorescence intensity (test concentration not listed). 3.1% of 360,000 active;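 active = at least 3 SD above the mean of all compounds, about 16000 in these data; inconclusive = too few beads counted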;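 also: 100 nL of 1 mM stock went into each well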
Mtb hypoxia inh growth: further read-out of Mtb hypoxia inh, marked with its call; growth inhibition, %; measured here: M. tuberculosis growth (absorbance);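 0% = vehicle and 100% = reference antibiotic; read after six days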
The depositor's hits bear a star; ? = inconclusive; / = not tested or not shown; & = joins results of further samples. Outcome played no part in choosing rows. Share with any hit: about 3.9%.

SMILES	RN4220 kill	PrP 5UTR inh	BJeLR viability	Mtb hypoxia inh	Mtb hypoxia inh growth	Sa ugtP lethal	Bead autofluor
O=C(COC(=O)c1ccc(Cl)nc1)NCCNC(=O)COC(=O)c1ccc(Cl)nc1	0.9	-13	-12	11	5	4	/
COc1ccc(-c2c(C)n([O-])c(C)c(C)[n+]2=O)cc1	0.2	-11	-1	/	/	5	4993
COc1cccc(N2CCN(C(=O)CCc3nnc4ccc(N5CCCC5)nn34)CC2)c1	-1.1	-25	9	8	6	6	5674
COc1ccc(Oc2cnn(-c3ccccc3)c(=O)c2Br)cc1	9.4	-16	-1	14	0	2	3256
CCOC(=O)C1(Cc2cccc(Cl)c2)CCCN(C(=O)CN2C(=O)CSC2=O)C1 (configuration not stated)	4.1	-19	5	10	-2	2	4338
O=C(Nc1cccc(F)c1)C1CCCN1C(=O)OCc1ccccc1 (configuration not stated)	1.0	-8	8	3	1	0	4380
O=C(O)c1cccnc1Oc1ccccc1	-1.0	-3	0	-1	6	2	3113
COc1ccc(OCC(=O)Nn2c(-c3cccc(OC)c3)nc3ccccc3c2=O)cc1	2.8	-11	4	2	5	5	2271
Cc1cc(Br)cn2cc(C(=O)O)nc12	4.3	-11	-5	10	-1	8	2061
Cc1ccn2c(=O)nc(SCC(=O)NCc3ccco3)nc2c1	3.0	-17	-1	-7	2	2	?
CCn1c(CCNC(=O)c2ccc(Cl)c(Cl)c2)nnc1SCCOc1ccc(OC)cc1	-0.6	-23	3	-4	10	-23	11067
O=c1cc(N2CCc3ccccc32)[nH]c(=O)n1-c1ccccc1	6.0	-16	-3	1	0	-4	5714
CCCCN(C(=O)CCn1c(=O)oc2ccccc21)c1ccccc1	6.1	-14	5	16	3	2	6175
O=C(c1ccc(N2CCCC2=O)cc1)N1CCN(c2cccc(C(F)(F)F)c2)CC1	-0.1	-18	/	-2	7	-3	?
CCCCOc1ccc(C(=O)N2CCN(CC(=O)Nc3ccc(C)cc3)CC2)cc1OC	4.3	-19	10	-4	-7	9	2951
Cc1ccc(-n2c(CCc3ccccc3)nnc2SCC(=O)NCc2ccccc2)cc1C	8.3	-12	1	6	10	-21	9197
C/C(=N\NC(=O)COc1ccc(C#N)cc1)c1ccccc1OC(F)F	/	-4	4	/	/	/	2683
CN(C)S(=O)(=O)c1ccc(C(=O)Nc2ccc(F)cc2F)cc1	7.7	-25	1	3	3	-5	6335
O=C(Nc1nccs1)c1cc2c(s1)-c1ccccc1OC2	1.0	-114	-6	-6	0	15	5166
Cc1ccc(S(=O)(=O)N2CCCC(N3CCOCC3)C2)cc1Cl (configuration not stated)	0.4	-8	-4	2	0	7	3166
COc1ccc(OC)c(NC(=O)c2ccc(CSc3ncccn3)cc2)c1	0.0	-23	1	-10	14	2	2563
O=C(COC(=O)c1ccc(Cl)c(S(=O)(=O)N2CCCCCC2)c1)Nc1ccccc1	2.7	-31	-3	3	-4	-1	2949
COCCNC(=O)CN(c1ccc(F)cc1)S(=O)(=O)c1ccc2c(c1)OCCO2	3.7	-27	7	-2	-2	12	2875
COc1cc(-c2ccc3sc(-c4ccsc4)c(C#CCO)c3c2)cc(OC)c1OC	2.7	-2	/	8	5	-19	4851
CCN(c1ccc(OC)cc1)S(=O)(=O)c1cc(-c2cc(C)no2)ccc1C(C)C	9.3	-4	1	-6	2	5	5118
CCCCCCCN1C(Nc2ccccc2)=NCC1C (configuration not stated)	-2.4	/	/	-8	4	-1	/
O=C(NCCc1ccncc1)C12CC3CC(CC(C3)C1)C2	3.0	-20	8	7	16	0	16057
O=C(Nc1ccc(Br)cn1)c1cccc(-c2cc3ccccc3oc2=O)c1	14	-16	-9	11	3	-10	2094
O=C1CCN(Cc2ccccc2)CCN1C(CO)c1ccccc1 (configuration not stated)	7.6	/	/	2	4	-1	/
Cc1cc(OCC(=O)Nc2ccc3oc(-c4ccncc4)nc3c2)ccc1Cl	4.1	-34	10	15	17	-8	9442
O=C(NCc1ccccc1)C(c1cccnc1)N(C(=O)c1csnn1)c1ccc(F)cc1 (configuration not stated)	2.4	-17	3	1	4	4	3581
O=S(=O)(NNc1ncc(C(F)(F)F)cc1Cl)c1ccccc1	4.6	11	/	20	5	0	2862
Cc1ccc(-n2cc(CN(C)Cc3nccn3C)c(-c3ccc(F)cc3)n2)cc1	-3.9	-24	-5	-11	20	10	4240
CC(C)OC(=O)CSc1nnc(CNc2nc(-c3ccccc3)cs2)n1C	-1.8	-19	4	/	/	0	2400
N#CCSc1nc(Nc2ccc3c(c2)OCO3)c2ccccc2n1	-4.3	-7	3	5	11	-11	10989
CC(=O)c1cn(CC(=O)Nc2ccccc2)c2ccccc12	2.7	-18	15	9	10	6	7784
Cc1cc(-c2ccco2)n2c(nc3ccccc32)c1C#N	-2.9	-5	-1	/	/	-3	4498
COc1ccc(NC(=O)Cn2nnc(-c3ccccc3F)n2)cc1Cl	-0.2	-19	1	16	11	6	3048
CC(=O)Nc1ccc(C(=O)OCC(=O)N(C)C2CCCCC2)cc1	3.1	-15	-7	-2	6	0	4558
CCCN1CCN(CCCNC(=O)C(CC)n2nc(C)n3c(cc4occc43)c2=O)CC1 (configuration not stated)	5.9	-6	5	11	11	3	5206

Entries of single compounds from above. Values in the order: RN4220 kill | PrP 5UTR inh | BJeLR viability | Mtb hypoxia inh | Mtb hypoxia inh growth | Sa ugtP lethal | Bead autofluor
O=C(NCc1ccccc1)C(c1cccnc1)N(C(=O)c1csnn1)c1ccc(F)cc1 (configuration not stated) reads 2.4 | -17 | 3 | 1 | 4 | 4 | 3581
CN(C)S(=O)(=O)c1ccc(C(=O)Nc2ccc(F)cc2F)cc1 reads 7.7 | -25 | 1 | 3 | 3 | -5 | 6335

Continued:
SMILES	RN4220 kill	PrP 5UTR inh	BJeLR viability	Mtb hypoxia inh	Mtb hypoxia inh growth	Sa ugtP lethal	Bead autofluor
N#Cc1cc2c(nc1SCC(O)CS(=O)(=O)Cc1ccccc1)CCCC2 (configuration not stated)	1.5	-12	-1	6	1	14	9001
CCOc1ccc(S(=O)(=O)N=C(c2ccccc2)N(C)C)cc1	2.4	/	/	16	9	5	/
COc1ccccc1C(=O)Nc1nc2ccccc2s1	/	92*	46	/	/	/	3220
O=C(c1ccccc1Oc1ccc(C(F)(F)F)cc1[N+](=O)[O-])N1CCOCC1	-1.5	-7	-2	-11	2	0	2602
COc1ccc(C(C#N)c2nc3ccccc3nc2Cl)cc1 (configuration not stated)	1.3	-30	-1	5	-10	12	3790
O=C(Nc1ccc2c(c1)OCCO2)c1cccnc1Oc1ccccc1	1.5	1	-1	4	11	12	5964
CC(NS(=O)(=O)c1ccc(Cl)cc1)C(=O)NCCC1=CCCCC1 (configuration not stated)	-1.0	-6	-2	16	1	0	4855
CCCS(=O)(=O)C(=C1Nc2ccccc2N1)S(=O)(=O)CCC	0.1	-15	4	17	11	-3	3804
CCCCCCC1/C(=N/O)CCC1C(=O)OC (configuration not stated)	/	-8	-2	/	/	/	3028
COc1cccc(C(=O)N(Cc2cccs2)C2CCS(=O)(=O)C2)c1 (configuration not stated)	2.2	-33	-5	5	3	10	3788
Cn1nc(C(F)(F)F)c(-c2ccccc2)c1NC(=O)CCC(=O)O	-1.3	-1	1	-4	12	-4	4744
S=c1c2c(nc3nc[nH]n13)CCC2	-4.4	-4	-3	-4	0	-1	3734
Fc1ccc(CNC2CCN(Cc3ccccc3)CC2)cc1	2.0	4	-9	11	6	-1	4314
CSc1nsc(SC)c1NC(=O)OC1CCCCC1	3.8	-3	8	5	13	-12	4713
Cc1cc(Cl)ccc1OCC(=O)Nc1ccccc1NS(=O)(=O)c1cccs1	10	-30	8	5	9	17	4589
O=C(NN=C1CCCCCCCCCCC1)c1ccncc1	3.0	-10	5	/	/	9	2464
CCN(CC(=O)Nc1c(F)cccc1F)C(=O)c1nc2nc(C)cc(C)n2n1	1.7	-26	/	-4	-3	11	7025
CC(/C=N/n1c(-c2cccnc2)n[nH]c1=S)=C\c1ccccc1	/	-8	2	/	/	/	16837*
Cc1ccc(S(=O)(=O)N2CCN(C)CC2c2ccccc2)cc1 (configuration not stated)	0.8	-2	/	5	11	0	/
CN(C)c1ccc(N=Nc2ccccc2Br)cc1	-14	1	7	9	-4	39	3723

Part of the list above, reformatted:
COCCNC(=O)CN(c1ccc(F)cc1)S(=O)(=O)c1ccc2c(c1)OCCO2
  RN4220 kill: 3.7 | PrP 5UTR inh: -27 | BJeLR viability: 7 | Mtb hypoxia inh: -2 | Mtb hypoxia inh growth: -2 | Sa ugtP lethal: 12 | Bead autofluor: 2875

COc1cc(-c2ccc3sc(-c4ccsc4)c(C#CCO)c3c2)cc(OC)c1OC
  RN4220 kill: 2.7 | PrP 5UTR inh: -2 | BJeLR viability: / | Mtb hypoxia inh: 8 | Mtb hypoxia inh growth: 5 | Sa ugtP lethal: -19 | Bead autofluor: 4851

CCN(c1ccc(OC)cc1)S(=O)(=O)c1cc(-c2cc(C)no2)ccc1C(C)C
  RN4220 kill: 9.3 | PrP 5UTR inh: -4 | BJeLR viability: 1 | Mtb hypoxia inh: -6 | Mtb hypoxia inh growth: 2 | Sa ugtP lethal: 5 | Bead autofluor: 5118

CCCCCCCN1C(Nc2ccccc2)=NCC1C (configuration not stated)
  RN4220 kill: -2.4 | PrP 5UTR inh: / | BJeLR viability: / | Mtb hypoxia inh: -8 | Mtb hypoxia inh growth: 4 | Sa ugtP lethal: -1 | Bead autofluor: /

The listing picks up, repeating the 2 entries before the break.
SMILES	RN4220 kill	PrP 5UTR inh	BJeLR viability	Mtb hypoxia inh	Mtb hypoxia inh growth	Sa ugtP lethal	Bead autofluor
Cc1ccc(S(=O)(=O)N2CCN(C)CC2c2ccccc2)cc1 (configuration not stated)	0.8	-2	/	5	11	0	/
CN(C)c1ccc(N=Nc2ccccc2Br)cc1	-14	1	7	9	-4	39	3723
CN(/N=C/c1ccc(Cl)cc1Cl)c1ncc(Cl)cc1C(F)(F)F	/	-15	-9	/	/	/	?
COc1cccc(CN2CCNC(=O)C2CC(=O)NC2CCCC2)c1OC (configuration not stated)	0.1	-22	-8	-4	-3	4	4759
O=[N+]([O-])c1cccc(CN2CCN(c3ncccn3)CC2)c1	-1.1	-116	-2	-3	10	2	4159
CCN1CCC[C@H]1CNC(=O)c1c(O)c(Cl)cc(Cl)c1OC	/	-31	-1&1	/	/	/	5169
CCCCC(=O)NC1(C(F)(F)F)C(=O)N(Cc2ccco2)C(C)=C1C(=O)OC (configuration not stated)	5.6	-9	1	17	1	-1	6735
Cc1ccc(N(C(=O)c2ccc(S(=O)(=O)N3CCOCC3)cc2)C2C=CS(=O)(=O)C2)cc1C (configuration not stated)	6.7	-11	4	-3	3	6	4271
CC(C)CC(=O)N/N=C/c1c(N)n(C)c(=O)n(C)c1=O	/	3	-6	/	/	/	4077
COc1ccc(Cc2nc3ccccc3n2C)cc1	0.2	-5	-9	20	20	9	4518
COc1ccc(CCNC(=O)c2cnn3c(C(F)F)cc(C)nc23)cc1OC	1.5	3	0	1	6	1	5353
CCOC(=O)C1CCN(C(=O)COC(=O)c2cccc(F)c2)CC1	2.1	-28	-6	5	4	3	2189
Nc1nnc(-c2cccnc2)s1	7.4	-3	-2	9	7	-14	9501
O=C(CNC(=O)c1cccs1)OCC(=O)c1ccccc1	3.7	-32	-1	1	-10	6	8684
Cc1ccc(CNC(=O)C2CCCN(S(=O)(=O)N3CCC(C)CC3)C2)cc1 (configuration not stated)	-0.4	-8	4	11	5	1	6065
COc1ccc(C2=NN(c3ccccc3)C(c3cn(CCC(=O)O)nc3-c3ccccc3)C2)cc1 (configuration not stated)	6.5	-25	-4	7	3	6	4484
Cc1nn(C)c(C)c1CNC(=O)c1nn2c(c1Cl)NC(c1cccs1)CC2C(F)(F)F (configuration not stated)	3.3	-34	9	5	5	-2	10341
